Sa growth 42C: blocks Staphylococcus aureus growth; S. aureus RN4220 growth, OD600, 20 h, 42 °C; stronger effect = lower value; relative growth, % (test concentration not listed); AID 720641; actives 0.53% (n = 170,000);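 active = growth at 42 °C up to 50% and 20 or more points under that at 30 °C, or under 10% at both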;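 note: 300 nL library stock went into each well; scaled to the means of positive and negative controls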
GIV Gai3 FP: GIV-Galpha-i interaction inhibition; Galpha-i3/FITC-GIV peptide fluorescence polarization, 90 min; stronger effect = lower value; scaled: aluminum fluoride 0%, vehicle 100%; percent of control (FP), % (no concentration beside the values); actives 0.42% (n = 210,000); AID 1224905;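 active = replicate mean at 85% of control or lower, very high polarization wells dropped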;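 note: wells of about 15 µL received 100 nL stock; the first replicate is given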
Target sequence (P08753 whole entry, looked up): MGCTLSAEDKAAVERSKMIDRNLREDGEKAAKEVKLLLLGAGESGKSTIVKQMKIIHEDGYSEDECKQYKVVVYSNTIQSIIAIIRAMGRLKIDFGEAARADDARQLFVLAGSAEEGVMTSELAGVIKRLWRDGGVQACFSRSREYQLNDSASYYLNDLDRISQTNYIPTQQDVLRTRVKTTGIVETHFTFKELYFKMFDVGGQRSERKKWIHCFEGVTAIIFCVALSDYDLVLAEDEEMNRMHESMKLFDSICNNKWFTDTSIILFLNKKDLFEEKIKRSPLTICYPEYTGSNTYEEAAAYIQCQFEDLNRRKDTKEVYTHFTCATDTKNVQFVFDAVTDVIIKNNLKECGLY
HCMV UL50-53 inh: cytomegalovirus nuclear egress complex inhibition; AID 1918969; inhibition, % (test concentration not listed); actives 0.15% (n = 190,000); HTRF UL50-UL53 interaction, normalized percent inhibition;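 active = both replicates at 50% or more, plus weaker picks with an unusually low signal ratio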;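 note: stock transfer was 100 nL into about 20 µL; 0% = negative control wells and 100% = wells with untagged competitor protein; inactives centre near -12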
Sa growth 42C second temp: also measured in Sa growth 42C; calls as there; relative growth, %; measured here: growth at 30 °C;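 optical density after 20 h as mean of two plates; 100% = untreated growth and lower means inhibition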
Starred values were filed as active, the others as inactive; x = not tested or not shown.

SMILES	Sa growth 42C	Sa growth 42C second temp	GIV Gai3 FP	HCMV UL50-53 inh
CC(C)c1ccc(N2C(=O)C=CC2=O)cc1	65	52	102	-20
O=c1c2ccccc2nc2c3ccccc3c(N3CCCCCC3)nn12	89	111	97	-3
CC(C)n1cnc2nc(CSc3ccccc3NC(=O)COc3ccccc3)cc(=O)n21	x	x	100	-5
CCS(=O)(=O)N1CCC(C(=O)NCCCN2CCCCC2)CC1	126	81	104	-16
CCC(=O)N=c1sc2cc(NC(C)=O)ccc2n1CCOC	103	88	105	-24
CCc1cccc(NC(=O)c2ccc3c(=O)n4c(nc3c2)CCCCC4)c1	112	81	106	6
CCCCN1C(=O)CN(C2CCCCC2)C(=O)C1c1ccc(OC)c(OC)c1 (stereo unspecified)	106	88	105	-12
CCC(=O)Nc1cccc(-c2cn3cccnc3n2)c1	100	91	101	x
CCCOCc1cc(CN2CCN(c3ccccc3OC)CC2)c(O)c2ncccc12	38	6	103	-18
O=c1ccc(N2CCCN(S(=O)(=O)c3ccc(F)cc3)CC2)nn1-c1ccc(F)cc1	x	x	105	-49
O=C1C(Sc2ncn[nH]2)=C/C(=N/S(=O)(=O)c2cccs2)c2ccccc21	1.4*	1.1*	18*	51*
O=C(CCCn1c(=S)[nH]c2cc3c(cc2c1=O)OCO3)N1CCN(c2ccccc2F)CC1	91	91	102	x

GIV Gai3 FP: hit marks shown above
| molecule | Sa growth 42C | Sa growth 42C second temp | GIV Gai3 FP |
| --- | --- | --- | --- |
| O=C1C(Sc2ncn[nH]2)=C/C(=N/S(=O)(=O)c2cccs2)c2ccccc21 | 1.4* | 1.1* | 18* |

More structures.
SMILES	Sa growth 42C	Sa growth 42C second temp	GIV Gai3 FP	HCMV UL50-53 inh
O=C(COCc1cc(-c2ccc3c(c2)OCO3)on1)N1CCN(c2cccc(Cl)c2)CC1	94	79	102	x
COc1ccc(NCc2cc3cc4c(cc3n(CC(=O)Nc3ccc(C)c(C)c3)c2=O)OCO4)cc1	83	87	101	x
CCOc1ccc(NC(=O)N(Cc2ccc(CC)cc2)Cc2cn[nH]c2-c2ccc(OC)cc2)cc1	129	93	104	-14
C/C(=N\O)c1ccc(OC(=O)c2ccc(Br)o2)cc1	127	73	100	-3
CC(C)COC(=O)Nc1nnc(SCCOc2ccccc2)s1	108	104	104	6
COC(=O)C1=C(O)/C(=C\c2cccs2)N=C1C	121	80	128	x
COc1cc(CN2CCC3(CC2)Nc2ccccc2-n2cccc23)cc(OC)c1OC	97	92	97	60*
CCN(CC)CCCNC(=O)c1c2c(nc3ccccc13)C(=O)N(C1CCCCC1)C2	86	89	97	x
O=C(N=C1c2ccccc2CN1c1ccccc1)c1ccncc1	114	98	x	7
COc1ccc(CCNC(=O)CSc2nc3c(c(=O)n(C)c(=O)n3C)n2Cc2ccccc2F)cc1OC	101	85	101	2
O=C(CSc1ncccn1)NCCC1=CCCCC1	60	76	108	1
Cc1ccccc1-n1c(O)c(C2=c3cc(Br)ccc3=NC2=O)sc1=O	x	x	109	-1
COc1ccc(CCNC(=O)CSc2nc3cc(OC)c(OC)cc3c3nc(C)nn23)cc1OC	98	88	100	x
O=C(O)c1ccc(Cl)cc1N=Cc1nc(-c2ccc(Br)cc2)oc1O	x	x	102	-24
CC(Oc1cccc(Cl)c1)C(=O)N1CCN(c2ncccn2)CC1 (stereo unspecified)	93	88	x	-6
Cc1ccccc1Cn1nc(C)c(NC(=O)c2cc(-c3ccc(F)cc3)on2)c1C	114	90	104	-21
O=C(COc1ccc(Br)cc1Cl)Nc1ncn[nH]1	108	87	106	-19
CCn1c(CNC(=O)c2ccccc2)n[nH]c1=S	95	71	105	-5
O=C(C1CCC1)N1CCCc2cc(S(=O)(=O)N3CCN(c4ccccc4)CC3)ccc21	111	95	105	x
O=C(O)c1cc(=O)[nH]c(-c2ccccc2)n1	118	90	99	-12
COc1nccnc1NS(=O)(=O)c1ccc(NCc2ccccc2O)cc1	100	89	108	-16
Cc1ccccc1NS(=O)(=O)c1ccc(Br)s1	92	84	118	-4
CCc1ccc(NC(=O)Cn2cc(S(=O)(=O)c3ccccc3)c(=O)c3ccccc32)cc1	99	93	96	x
COC(=O)NC(C)N1C(=O)C2C3C=CC(C3)C2C1=O (stereo unspecified)	77	87	106	x
CCc1ccc(NC(=O)C2CCC(CNS(=O)(=O)c3ccc4c(c3)C(C)(C)C(=O)N4C)CC2)cc1 (stereo unspecified)	119	81	106	x
COc1ccc2c(c1)c(C(=O)CN1CCCCC1)c(C)n2C	x	x	104	10
CCN(CC)CCN1C(=O)C(=O)/C(=C(/O)c2ccc(S(=O)(=O)N3CCOCC3)cc2)C1c1ccccc1 (stereo unspecified)	79	83	106	-52
Cc1ccc(-n2c(N)c(C(=O)NCc3ccco3)sc2=S)cc1	94	79	110	-71
Cc1csc(-n2c(C)ccc2C)n1	92	94	x	0
CCc1nn2c(=O)cc(COC(=O)c3cccc(NC(=O)c4ccccc4C)c3)nc2s1	103	84	107	x
c1ccc(CNC2=NCCC2)cc1	105	76	x	-31
O=C(CCc1ccccc1)NNc1c(Cl)cncc1Cl	102	98	105	4
CCN(CC)c1ccc(N=Cc2cccs2)cc1	90	74	x	-5
COc1cc2c(c(OC)c1OC)C(c1ccc(N(C)C)cc1)C1=C(CC(C)(C)CC1=O)N2 (stereo unspecified)	101	87	100	-20
O=C(Nc1ccccc1F)c1ccc2c(Cl)c3c(nc2c1)CCC3	91	82	97	-27
O=C(N/N=C/c1ccc(N2CCOCC2)cc1)c1ccc(Cl)cc1	84	97	x	-23

The list goes on, starting with the last 2 of the part before.
SMILES	Sa growth 42C	Sa growth 42C second temp	GIV Gai3 FP	HCMV UL50-53 inh
O=C(Nc1ccccc1F)c1ccc2c(Cl)c3c(nc2c1)CCC3	91	82	97	-27
O=C(N/N=C/c1ccc(N2CCOCC2)cc1)c1ccc(Cl)cc1	84	97	x	-23
O=C(c1ccc(Cl)cc1Cl)N1CCN(C(=O)C2CCCCC2)CC1	101	86	110	-18
CC(C)CC(=O)NCc1ccc2c(c1)OCO2	100	89	x	-10
CCn1nc(C)c2c1c(=O)n(Cc1ccc(F)cc1)c(=O)n2CC(=O)Nc1ccsc1C(=O)OC	x	x	104	0
COc1ccc(-c2cc(C(=O)Nc3ccccn3)c3ccccc3n2)cc1OC	x	x	101	-17
Cc1cccc(OCCn2nnc3sc4c(c3c2=O)CCCC4)c1	85	86	101	-37
COc1ccccc1CNC(=O)c1cn(C)c(=O)c2c1c1ccccc1n2C	x	x	96	-5
CC(C)CC(=O)NC(=S)Nc1ccc(NC(=O)c2ccco2)cc1	110	71	93	-12
Nc1nc(NCc2ccco2)n[nH]1	120	95	106	-10
CCc1ccc(NC(=O)CC2C(=O)N(c3ccccc3)C(=O)N2C2CCCC2)cc1 (stereo unspecified)	106	95	104	-30
Cc1ccc(N2C(=O)CCS2(=O)=O)cc1S(=O)(=O)N1CCOCC1	x	x	107	0
CC1CCc2c(sc(NC(=O)C3CCCN3S(=O)(=O)c3cccs3)c2C(N)=O)C1 (stereo unspecified)	110	94	104	-23
COc1cccc(-c2nnc(SCC(=O)NCCOc3ccccc3)n2-c2ccccc2)c1	96	89	x	5
COc1ccc(C2=C(Nc3ccc(C(=O)N4CCOCC4)cc3)c3ccccc3C2=O)cc1	82	84	x	-14
Cc1cc(C(=O)N2CCCCC2)on1	x	x	101	-17
CCOC(=O)N1CCC(n2c(=S)[nH]c3ccccc3c2=O)CC1	102	102	96	-9
Cc1ccc(Cn2c(C(=O)NCCCN3CCOCC3)cc3sccc32)cc1	107	98	113	9
COc1ccc(C(=O)CSc2nc(N)c(C#N)c(C3CCCCC3)c2C#N)cc1	x	x	105	-18
C=Cc1ccc(CSc2nnc3n(CC(C)C)c(=O)c4ccccc4n23)cc1	x	x	98	-31
CCOC(=O)c1c(-c2ccccc2)oc2c1cc(OC(=O)c1cccc(Cl)c1)c1ccccc12	x	x	100	-9
COc1ccc(NC(=O)C2(NS(=O)(=O)c3cccc4cccnc34)CCCCC2)cc1OC	106	91	106	-2
Cc1ccc(N2CCN(S(=O)(=O)c3ccc(Cl)c4ccccc34)CC2)c(C)c1	107	92	107	-14
O=C(Oc1ccccc1/C=C1\Sc2ccccc2C1=O)c1ccc([N+](=O)[O-])o1	x	x	107	-28
CNC(=O)CN1C(=O)C2CCCCN2c2ccc(C(=O)N(C)C)cc21 (stereo unspecified)	x	x	98	-14
Cc1ccc(S(=O)(=O)N2CCN(Cc3noc(CCC(=O)N4CCCCC4)n3)CC2)c(C)c1	73	92	102	x
CCN(CC)c1ccc2cc(C(N)=O)c(=Nc3ccc(Cl)cc3Cl)oc2c1	x	x	104	-25
CN(C)c1ccc(C=NCC(O)CN=Cc2ccc(N(C)C)cc2)cc1 (stereo unspecified)	103	82	100	-55
CC1CCC(NC(=O)C2CCCN2S(=O)(=O)c2cc3c(cc2Cl)NC(=O)CO3)CC1 (stereo unspecified)	x	x	102	-21
CCN(C(=O)Nc1ccccc1C(=O)OC)c1nc(-c2ccc(Br)cc2)cs1	x	x	106	-5
COc1cccc(NCc2nnc(SCc3nc4ccccc4o3)n2C2CCCCC2)c1	103	86	x	-23
Cc1cccn2c(=O)c(/C=C(\C#N)c3nc4ccccc4n3C)c(Oc3ccc(Cl)cc3)nc12	85	91	95	-54
CN1CCC(N(Cc2ccco2)C(=O)c2cc3sccc3n2Cc2ccccc2)CC1	91	82	102	4
COc1ccc(NC(=O)c2ccc3c(=O)n(Cc4ccco4)c(=S)[nH]c3c2)c(OC)c1	98	100	105	14
CCCN(C1=NC2CS(=O)(=O)CC2S1)c1ccccc1F (stereo unspecified)	94	86	102	x
CCOC(=O)c1c(NC(=O)COc2ccc(Cl)cc2)sc(C(=O)Nc2ccc(OC)cc2OC)c1C	x	x	103	-14
O=C(NCc1ccc2c(c1)OCO2)c1ccc2c(c1)N(Cc1ccc(F)cc1)C(=O)c1ccccc1S2=O (stereo unspecified)	100	89	103	-29
COc1cc2c(=O)c(C(=O)c3ccc(F)cc3)cn(Cc3cccc(F)c3)c2cc1OC	89	59	93	-31

Five of the entries above in order of their number in GIV Gai3 FP, high to low:
compound,GIV Gai3 FP
CCN(C(=O)Nc1ccccc1C(=O)OC)c1nc(-c2ccc(Br)cc2)cs1,106
CCN(CC)c1ccc2cc(C(N)=O)c(=Nc3ccc(Cl)cc3Cl)oc2c1,104
O=C(NCc1ccc2c(c1)OCO2)c1ccc2c(c1)N(Cc1ccc(F)cc1)C(=O)c1ccccc1S2=O (stereo unspecified),103
CN1CCC(N(Cc2ccco2)C(=O)c2cc3sccc3n2Cc2ccccc2)CC1,102
COc1cc2c(=O)c(C(=O)c3ccc(F)cc3)cn(Cc3cccc(F)c3)c2cc1OC,93

Continuation.
SMILES	Sa growth 42C	Sa growth 42C second temp	GIV Gai3 FP	HCMV UL50-53 inh
Cc1ccc2oc(C(=O)Nc3c(C(=O)c4ccc(C)c(F)c4)oc4ccccc34)cc(=O)c2c1	117	91	105	-11
CCOC(=O)c1sc(NC(=O)c2nc3nc(C)cc(C(F)F)n3n2)c(C(=O)OC)c1C	86	86	103	-17
O=C(c1ccco1)N1CCN(C(=O)C2CCCN(S(=O)(=O)Cc3ccccc3)C2)CC1 (stereo unspecified)	106	87	105	-4
O=C(c1ccc(F)cc1)c1c[nH]c(C(=O)NCc2cccs2)c1	x	x	103	0
CN(C)S(=O)(=O)c1cccc(COC(=O)c2cccnc2N)c1	97	91	x	-17
CN(C)C(=O)C(OC(=O)Cc1n[nH]c(=O)c2ccccc12)c1ccccc1 (stereo unspecified)	77	82	x	-32
CCCCNC(=O)CN1C(=O)C2CCCC2=Nc2ccccc21 (stereo unspecified)	x	x	105	-10
CCOCCCNC(=O)c1c(NC(=O)c2nc(SC)ncc2Cl)sc2c1CCCC2	101	90	112	-2
O=C(NCc1ccc(Cl)cc1)C1CCN(c2nnc(-n3cccc3)s2)CC1	x	x	97	2
CCOc1ccc(CNC(=O)Cn2c(=O)c3cccn3c3cccnc32)cc1	130	79	98	x
CCc1ccc(NC(=O)CN2C(=O)C(c3ccccc3)=NC23CCCCCC3)cc1	93	87	101	-22
Cc1cc2nc(-c3ccc(NC(=O)c4ccc(OCC(C)C)cc4)cc3)oc2cc1C	99	84	110	-52
CC(C)(C)OC(=O)N1CCC(c2c(C(=O)NCCc3ccsc3)cnn2-c2ccccc2Cl)CC1	107	96	105	x
CCN(CC)c1ccc(/C=C/c2cc(=O)cc(C)o2)cc1	27	26	-61*	-59
N#Cc1cccnc1Nc1ccc(Cl)c(Cl)c1	93	83	x	-29
CN(C(=O)c1ccc(N2C(=O)CCS2(=O)=O)cc1Cl)C1CCS(=O)(=O)C1 (stereo unspecified)	x	x	104	-5
COC(=O)c1ccc(Nc2nnc(Cc3ccc(Cl)cc3)c(=O)[nH]2)cc1	101	100	100	7
Nc1cc(Cl)ccc1C(=O)OC1CCOC1=O (stereo unspecified)	101	91	x	-19
O=C(O)c1ccc(I)o1	106	82	101	-24
Cc1nn(-c2cc(N3CCCC3)ncn2)c(C)c1CCC(=O)Nc1cccc(Cl)c1	x	x	97	-7
CCCN(CCC)S(=O)(=O)c1ccc(C(=O)N2CCC(=O)c3ccccc32)cc1	97	87	108	8
